# KCNQ2 block: KCNQ2 potassium channel inhibitors, primary screen, cell-based, CHO-K1, FluxOR thallium flux, B-score (AID 2156) | 20 min; stronger effect = lower value; only compounds with negative scores are shown here; some inactives read as strong as hits | O88943 | hit rate 1.1% among 310,000 | B-score at 10 µM;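 active means fluorescence ratio B-score at most minus 3 library SDs, with starting brightness B-score within 2 library SDs, cut at about -5.5 in these data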
# Target sequence (O88943 whole entry, looked up): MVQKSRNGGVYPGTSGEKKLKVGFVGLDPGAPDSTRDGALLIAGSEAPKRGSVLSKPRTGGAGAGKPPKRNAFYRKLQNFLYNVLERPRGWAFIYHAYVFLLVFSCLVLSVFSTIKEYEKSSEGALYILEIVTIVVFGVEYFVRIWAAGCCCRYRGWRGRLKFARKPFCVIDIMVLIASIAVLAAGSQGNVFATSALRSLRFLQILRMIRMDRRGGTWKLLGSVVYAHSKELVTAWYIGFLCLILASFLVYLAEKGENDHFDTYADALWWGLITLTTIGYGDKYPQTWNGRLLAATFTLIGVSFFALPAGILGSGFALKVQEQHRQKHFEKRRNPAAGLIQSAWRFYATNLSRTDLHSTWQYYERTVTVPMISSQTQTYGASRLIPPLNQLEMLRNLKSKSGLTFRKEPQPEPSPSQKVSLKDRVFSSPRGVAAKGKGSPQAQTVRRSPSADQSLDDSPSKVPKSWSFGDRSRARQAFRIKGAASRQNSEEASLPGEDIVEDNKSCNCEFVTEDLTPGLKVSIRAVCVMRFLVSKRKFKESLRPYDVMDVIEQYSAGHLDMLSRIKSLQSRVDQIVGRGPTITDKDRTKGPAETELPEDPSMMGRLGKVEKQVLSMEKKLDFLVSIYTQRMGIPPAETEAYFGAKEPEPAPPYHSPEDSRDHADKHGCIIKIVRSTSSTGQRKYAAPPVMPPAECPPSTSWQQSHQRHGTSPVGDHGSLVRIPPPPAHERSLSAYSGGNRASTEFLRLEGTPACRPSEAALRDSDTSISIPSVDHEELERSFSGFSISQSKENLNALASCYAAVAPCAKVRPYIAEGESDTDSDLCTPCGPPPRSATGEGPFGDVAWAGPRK
# KCNQ2 block baseline: second read-out of KCNQ2 block, no call of its own (marks repeat the call); B-score; measured here: initial fluorescence intensity artifact check;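 brightness before thallium and not channel activity; 0 = typical well and far values either way flag optical interference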
# The depositor's hits bear a star; i = inactive.
SMILES,KCNQ2 block,KCNQ2 block baseline
O=C(/C=C/c1ccccc1)NC(=S)NNS(=O)(=O)c1ccccc1,i,-0.55
O=C(Nc1ccon1)c1cccc(S(=O)(=O)N2CCCCC2)c1,i,0.57
COc1ccc(OC)c(C(c2c(C)[nH][nH]c2=O)c2c(C)[nH][nH]c2=O)c1,i,1.1
CCCNC(=O)c1ccc(C2SCC(=O)N2CCc2ccccc2)cc1 (stereo not given),i,0.75
COc1ccc2nc(C)cc(SCC(=O)N3CCCCC3)c2c1,i,-0.02
Cc1ccc(S(=O)(=O)N2CCN(C(C)C)CC2)cc1,i,0.25
COc1ccc(C(CNC(=O)c2cc(SC)ccc2Cl)N(C)C)cc1 (stereo not given),i,-0.52
O=C(CCNS(=O)(=O)c1ccc(Cl)cc1)N1CCN(c2ccccn2)CC1,i,0.02
Cc1c(NC(=O)c2cnn3c2NC(c2ccco2)CC3C(F)(F)F)c(=O)n(-c2ccccc2)n1C (stereo not given),i,0.25
COc1cccc(N(CC(=O)NCCSCc2ccc(C)cc2)S(C)(=O)=O)c1,i,-0.28
CCCn1c(NCc2cccc(OC)c2O)nc2ccccc21,i,-1.5
Oc1ccc(Br)cc1/C=N/NC(=S)NCCc1ccccc1,i,-2.1
CC(Oc1ccc(Cl)cc1)C(=O)Nc1ccc(S(=O)(=O)N2CCOCC2)cc1 (stereo not given),i,-0.25
CCOC(=O)/C(C(=O)Nc1ccc(Br)cc1)=C1/NC(C)(C)Cc2ccccc21,i,-1.1
COc1ccc(N(CC(=O)NCCC2=CCCCC2)S(=O)(=O)c2ccc(C)cc2)cc1OC,i,0.47
CC(C)C(NC(=O)c1ccccc1F)C(=O)Nc1ccc2c(c1)OCO2 (stereo not given),i,-0.56
CCNC(=O)Cn1cnc2c1c(=O)n(C)c(=O)n2C,i,-1.8
NS(=O)(=O)c1ccc(NC2=CC(c3ccc(F)cc3)N(c3ccc(S(N)(=O)=O)cc3)C2=O)cc1 (stereo not given),i,0.46
CCn1cc(-c2ccccc2)c(C(=O)O)c1-c1ccc(OC)cc1,i,1.9
CCOC(=O)CSc1ccc2nnc(CCNS(=O)(=O)c3ccc(C)cc3)n2n1,i,-0.33

# Taken from above.
# Result of CCOC(=O)/C(C(=O)Nc1ccc(Br)cc1)=C1/NC(C)(C)Cc2ccccc21 under KCNQ2 block baseline: -1.1
# Result of CC(C)C(NC(=O)c1ccccc1F)C(=O)Nc1ccc2c(c1)OCO2 (stereo not given) under KCNQ2 block baseline: -0.56

# A different layout for some results above:
> CCOC(=O)CSc1ccc2nnc(CCNS(=O)(=O)c3ccc(C)cc3)n2n1
  KCNQ2 block: i | KCNQ2 block baseline: -0.33

> NS(=O)(=O)c1ccc(NC2=CC(c3ccc(F)cc3)N(c3ccc(S(N)(=O)=O)cc3)C2=O)cc1 (stereo not given)
  KCNQ2 block: i | KCNQ2 block baseline: 0.46

> CC(C)C(NC(=O)c1ccccc1F)C(=O)Nc1ccc2c(c1)OCO2 (stereo not given)
  KCNQ2 block: i | KCNQ2 block baseline: -0.56

> CCNC(=O)Cn1cnc2c1c(=O)n(C)c(=O)n2C
  KCNQ2 block: i | KCNQ2 block baseline: -1.8

# (next part)
SMILES,KCNQ2 block,KCNQ2 block baseline
Cc1ccc(C)c(S(=O)(=O)NCc2ccc(C(=O)NCc3ccccn3)cc2)c1,i,0.96
CC1CC(C)CN(C(=O)c2cc3c(s2)CCC3)C1 (stereo not given),i,0.32
COc1ccccc1NC(=O)c1ccc(-n2ccnc2)c([N+](=O)[O-])c1,i,0.51
COc1ccc(C2c3c(oc4ccccc4c3=O)C(=O)N2CCN2CCOCC2)cc1OC (stereo not given),i,2.1
COCCCNC(=O)/C(C#N)=C/c1c(N2CCCCCC2)nc2ccccn2c1=O,i,-0.06
COc1cc(C2CC(=O)OC3=C2C(=O)CC(C)(C)C3)cc(OC)c1OC (stereo not given),i,2
CCCCn1c(CNC(=O)C23CC4CC(CC(C4)C2)C3)nnc1SC(C)CC (stereo not given),i,0.03
C/C(CCc1ccccc1)=N\NC(=O)C1C2CCCCC21 (stereo not given),i,0.95
Cc1ccccc1OCC(=O)NCCNC(=O)c1cccnc1,i,-1.7
COc1ccccc1N=Nc1c(C)noc1C,i,-0.08
CN(C)/C=C1\C(=O)N(c2ccc(F)cc2F)C(c2cccnc2)S1(=O)=O (stereo not given),i,0.93
O=C(OCc1nnc(-c2ccccc2)o1)c1cc(Cl)ccc1[N+](=O)[O-],i,-1.1
CCC(C)(C)NC(=O)C(c1ccc(OC)cc1)N(C(=O)CCC(=O)Nc1cc(C)on1)c1cccc(OC)c1 (stereo not given),i,-0.87
O=C(COc1ccccc1)OCc1cc2ccccc2[nH]c1=O,i,-0.01
O=C(CN1CCN(c2ccccc2)CC1)c1ccc2cc[nH]c2c1,i,-0.74
COc1ccc(NC(=O)CN(C)S(=O)(=O)c2ccccc2)cc1,i,0.01
COc1ccc(Cn2c(C3CCCCC3)nc3c(c(=O)c4ccccc4n3C)c2=O)cc1,i,-1.4
CC(C)Cn1c(-c2ccco2)csc1=Nc1cccnc1,-6.3*,0.69*
O=C(CSc1nnc(-c2ccccc2F)n1C1CC1)NC(=O)c1cccc([N+](=O)[O-])c1,i,-0.01
O=C(NC(CC(=O)N1CCN(c2ccc([N+](=O)[O-])cc2)CC1)c1ccccc1)c1ccccc1Cl (stereo not given),i,-0.67
C=C1/C(=C\C=C2/CCC[C@]3(C)[C@@H]([C@H](C)/C=C/[C@@H](O)C4CC4)CC[C@@H]23)C[C@@H](O)C[C@@H]1O,i,-0.43
CCCCN(CCCNc1ncnc2nc[nH]c12)c1ccccc1,i,-1.2
CCN(CC)S(=O)(=O)c1ccc(S(=O)(=O)Nc2cc3c(cc2C(C)=O)OCO3)cc1,i,-1.4
CCn1cc(/C=N/NC(=O)c2ccc3c(c2)OCO3)cn1,i,0.59
CN(C)CCCNC(=S)N(CCN(C)C)Cc1cc2cc3c(cc2[nH]c1=O)OCCO3,i,0.39
COc1cc(NC(=S)NCCC(c2ccccc2)c2ccccc2)cc(OC)c1,i,-2.5
N/C(=N\OC(=O)c1cccc(Br)c1)c1ccc(Br)cc1,i,-1.1
Cc1c(S(=O)(=O)N2CCOCC2)c(=O)n(C)c(=O)n1C,i,-0.62
CCCn1nc2cc(C(=O)N(CC)c3ccc(OC)cc3)ccc2c1OCC,i,-2.6
CCN(CC)c1ccc(C=C2C(=O)OC3(CCCCC3)OC2=O)cc1,i,2.8
Cc1cc(N2CCN(C(=O)Nc3ccc(F)cc3F)CC2)c2ccccc2n1,i,1.9
CCOC(=O)c1ccc(NCCc2ccc(OC)c(OC)c2)c(N)c1,i,-0.16
COc1ncnc2c1oc1ccccc12,i,-1.1
COc1ccc(NC(=S)N2CCN(S(=O)(=O)c3ccc(OC)cc3)CC2)cc1,i,2.2
O=CN(Cc1ccco1)C1(C(=O)NC2CCCCC2)CCCCC1,i,-0.66
CC(C)Cn1c(=O)c2c(c3ccccc31)OC(C)C(=O)N2 (stereo not given),i,1.3
COC(=O)c1ccc(CN2CCN(CCC(C)C)C(CCO)C2)cc1 (stereo not given),i,0.53
COc1ccc(C(=O)NCC(=O)OCC(=O)NC(=O)NC2CCCCC2)cc1OC,i,-0.42
Nc1c(C(=O)N/N=C/c2cccnc2)oc2nc(-c3ccco3)cc(-c3ccco3)c12,i,1.2
CNc1ccc(S(=O)(=O)NC)cc1[N+](=O)[O-],i,-1.7
CC(C)OC(=O)c1c(NC(=O)CCn2nnc3ccccc32)sc2c1CCCC2,i,-1.6
CCn1c2ccccc2c2cc(NC(=O)c3ccc(C)c([N+](=O)[O-])c3)ccc21,i,0.29
CCOC(=O)C1(CCOc2ccccc2)CCN(CC(O)CO)CC1 (stereo not given),i,2
CCOc1ccc(CN2CCNC(=O)C2CC(=O)NCCc2nc(C)c3c(n2)CCC3)cc1 (stereo not given),i,-0.2
CN(C)c1nc2c(c(=O)[nH]c(=O)n2C)n1Cc1ccc(F)cc1,i,0.3
CNC[C@H](CC1CCCCC1)NC[C@H](CO)NCCc1cccc(C(F)(F)F)c1,i,-1.9
Cc1ccc2cc(C(c3nnnn3CC3CCCO3)N3CCc4ccccc4C3)c(=O)[nH]c2c1 (stereo not given),i,-0.29
C/C(CC(=O)Nc1ccc(Cl)c(C(F)(F)F)c1)=N\NC(=O)c1cnccn1,i,2.1
CC(C)C(C(=O)Nc1ccc(N2CCOCC2)cc1)N1C(=O)c2ccccc2C1=O (stereo not given),i,1.3
COc1cc(OC)cc(C(=O)N[C@H](C(=O)NCCc2c[nH]c3ccccc23)C(C)C)c1,i,-0.93
Cc1ccccc1OCC(=O)Nc1ccccc1N1CCOCC1,-6.5*,0.33*
CC(C)(C)n1nnnc1C(c1ccncc1)N1CCN(c2ccc(O)cc2)CC1 (stereo not given),i,0.19
O=C(O)c1cc(N/N=C/c2c[nH]c3ccccc23)ccc1Cl,i,-0.59
Cc1ccc(S(=O)(=O)Cn2nnnc2C(C(C)C)N2CCc3ccccc3C2)cc1 (stereo not given),i,0.17
Cc1ccc(Cl)cc1N1CCN(C(c2cccnc2)c2nnnn2C2CCCCC2)CC1 (stereo not given),i,-0.02
COCc1nnc(NC(=O)c2ccc(S(=O)(=O)N3CCCCCC3)cc2)o1,i,-0.68
Cn1cc(S(=O)(=O)Oc2ccccc2)c(=O)n(C)c1=O,i,1.7
COc1cccc(CC(=O)NCC2(N3CCCCC3)CCCCC2)c1,i,0.51
CCOC(=O)C1=NNC(C(=O)c2ccc(C)cc2)C1c1ccc(OC)cc1 (stereo not given),i,0.62
C=CCn1c(SCc2ccc(C(=O)NCCO)cc2)nc2sc(C)c(C)c2c1=O,i,-2.1
# Continuation.
SMILES,KCNQ2 block,KCNQ2 block baseline
CCN(CCNC(=O)Cn1cc2c(n1)CCCC2)c1ccccc1,i,-1.3
COC(=O)CCC(=O)N(CCN(Cc1ccccc1)C(=O)CCC(=O)OC)Cc1ccccc1,i,-0.59
COc1cccc(Cn2cnc3c(sc4nc(C)cc(C)c43)c2=O)c1,i,-0.19
COc1cc(OC)cc(C(=O)N2CCN(C(=O)c3cccs3)CC2)c1,i,-0.49
CCC(C)NC(=O)/C(=C/c1ccco1)c1ccccc1 (stereo not given),i,0.2
CN1CCN(NC(=O)C2CC2)CC1,i,0.58
O=C1CCCN1CCC1CCN(C2CC(=O)N(c3ccc(Cl)cc3)C2=O)CC1 (stereo not given),i,1.2
COc1ccc(-n2nc3c(c2NC(=O)C(C)C)CSC3)cc1,i,2.3
Cc1c(C=O)c(Cl)n(C)c(=O)c1C#N,i,-2.2
O=C(NCc1ccncc1)c1cc(F)c(F)cc1Cl,i,0.6
O=C(c1ccc(Cl)c(S(=O)(=O)N2CCCC2)c1)N1CCCC(C(F)(F)F)C1 (stereo not given),i,1.2
O=c1oc2ccccc2n1Cc1cccc(Cl)c1,i,0.34
CC1(C)C(=O)NC(=O)N1Cc1ccccc1,i,2.8
CN(C)c1ccc(/C=N/N(CCC#N)C2=NS(=O)(=O)c3ccccc32)cc1,i,0.42
NC(=O)CSc1cn(Cc2cccc(F)c2)c2ccccc12,i,-0.92
CNc1nc(NN)nc(Nc2ccccc2)n1,i,0.27
CC(C)(C)c1ccc(O)c(N)c1,i,-0.28
COP(=O)(OC)C(Nc1ccc(C)cc1)c1ccc([N+](=O)[O-])cc1 (stereo not given),i,-0.84
CCN(CC)CCNCc1ccc(OCc2ccc(Cl)nc2)c(OC)c1,i,-1.3
Cc1ccc(C(=O)n2ncn(C)c2=S)cc1,i,-1.1
COc1ccc(/C=C/C(=O)c2ccc(NS(=O)(=O)c3ccc(C)cc3)cc2)cc1O,i,2
CN(C)/C=N/c1sc2c(c1C#N)CC(C)(C)NC2(C)C,i,-0.11
O=C(COC(=O)C1CCCC1)Nc1ncc(Cl)cc1Cl,i,0.71
Cc1cc(C)nc(SCc2cc(=O)c(OC(=O)c3cc([N+](=O)[O-])ccc3Cl)co2)n1,i,0.9
CCCC12CN(C(=O)c3ccc([N+](=O)[O-])cc3)CC(C)(CN(C(=O)c3ccc([N+](=O)[O-])cc3)C1)C2=O,i,1.8
CC1CC(C)CN(C(=O)CCNC(=O)Cn2ccc3ccccc3c2=O)C1 (stereo not given),i,-0.67
COc1cc(OC)cc(C(=O)NCC(=O)OCC(=O)Nc2cc(S(C)(=O)=O)ccc2Cl)c1,i,0.43
Cc1ccccc1CC(=O)Nc1ccc(S(=O)(=O)N2CCOCC2)cc1,i,-0.87
CCN(CC)c1ccc(N2C(=O)CSC2=S)cc1,i,2.1
CCOC(=O)c1c(C)[nH]c(C)c1C(=O)CSc1nnc(-c2cc(OC)c(OC)c(OC)c2)o1,i,-0.7
COc1ccc(Nc2ncnc3sc(-c4ccccc4)cc23)cc1,i,-1.3
O=C(CN1C(=O)/C(=C/c2ccccc2)SC1=S)NNC(=O)c1ccccc1O,i,0.13
CC[C@H](C)/C=C(C)/C=C/C1=CC2=CC(=O)[C@]3(C)OC(=O)[C@@H](C(C)=O)[C@@H]3C2=CO1,i,11
COCc1cc(C)nc(SCC(=O)Nc2ccc(C)c(C)c2)c1C#N,i,2.1
COc1ccc(C2CC(=O)N(CC(=O)NCC3CCCO3)c3ccccc3S2)cc1OC (stereo not given),i,0.78
Cc1ccc(O)c(C(=O)c2cc(C#N)c(=O)n(Cc3ccccc3)c2)c1,i,-1.5

# Whole records, quoted from the list. Order of values: KCNQ2 block | KCNQ2 block baseline
# `Cc1c(NC(=O)c2cnn3c2NC(c2ccco2)CC3C(F)(F)F)c(=O)n(-c2ccccc2)n1C` (stereo not given) in the list: i | 0.25
# `COc1cc(OC)cc(C(=O)N[C@H](C(=O)NCCc2c[nH]c3ccccc23)C(C)C)c1` in the list: i | -0.93
# `CCOC(=O)C1(CCOc2ccccc2)CCN(CC(O)CO)CC1` (stereo not given) in the list: i | 2
# `CC1(C)C(=O)NC(=O)N1Cc1ccccc1` in the list: i | 2.8
# `COc1ccc(C2CC(=O)N(CC(=O)NCC3CCCO3)c3ccccc3S2)cc1OC` (stereo not given) in the list: i | 0.78

# Compound activity deposited in PubChem BioAssay by Johns Hopkins Ion Channel Center.

# Not all compounds are listed, so the mix of outcomes need not match the whole.
